VACV mCherry inh: qHTS for Stage-Specific Inhibitors of Vaccinia Orthopoxvirus: mCherry Reporter Primary qHTS | Vaccinia virus mCherry reporter infection, fluorescence; about a quarter of the inactives have no number | Potency, µM (titrated, usually from 36.5 µM), for the others: at the highest dose activity change, negative = inhibition, usual class: inhibitors | 310,000 tested, 0.63% active; active = well fitted inhibition curve with a large enough effect; inconclusive = small, poorly fitted or top-dose-only effect; inactive = no such curve, though single readings can be large or run the other way; tested in A549 cells; also: nearly all actives have a fitted effect of over 35% in size; inactives centre near -10
Vaccinia Venus: qHTS for Stage-Specific Inhibitors of Vaccinia Orthopoxvirus: Venus Reporter Primary qHTS; Vaccinia virus Venus reporter expression, fluorescence; 330,000 tested, 0.46% active; Potency, µM (titrated, usually from 36.5 µM), for the others: at the highest dose activity change, negative = inhibition, hits mostly inhibitors; active means well fitted inhibition curve with a large enough effect; inconclusive means small, poorly fitted or top-dose-only effect; inactive means no such curve, though single readings can be large or run the other way; tested in A549 cells; also: nearly all actives have a fitted effect of over 30% in size; inactives centre near -10
Active calls of the source: *; i = inactive; ? = inconclusive; / = not tested or not shown; & = joins results of further samples; [ ] = another dose, or the depositor's remark. % is scaled to controls: 0 for no effect and ±100 for the full control effect; potency is read from the fitted curve at half-maximal effect.

SMILES	VACV mCherry inh	Vaccinia Venus
CCCC(C(=O)NC(C)(C)CC)N(Cc1ccco1)C(=O)CNS(=O)(=O)c1ccccc1 (configuration not stated)	-10%	-4%
CCCS(=O)(=O)C/C(N)=N/OC(=O)c1ccccc1Cl	8%	13%
CCSc1nnc(NC(=O)c2ccc(S(=O)(=O)N(C)C)cc2)s1	-3%	2%
COc1ccc(CCC(=O)NCC2CCCCC2)cc1OC	-3%	-17%
COc1ccc2c3c1OC1C(=O)CC[C@@]4(O)[C@@H](C2)N(CC2CC2)CC[C@]314 (some centres not stated)	i	-9%
COc1cc(S(=O)(=O)N(Cc2cccs2)CC2CCCO2)ccc1-n1cnnn1 (configuration not stated)	-14%	-11%
Cc1cc(NC(=O)c2cccs2)ncc1NC(=O)C(C)C	i	-14%
COc1ccccc1OCCn1cc(C(=O)c2cccs2)c2ccccc21	-7%	-26%
CCC(Sc1nc(-c2ccccc2)c(-c2ccccc2)[nH]1)C(=O)O (configuration not stated)	i	-5%
CC(=O)Nc1ccc(NC(=O)C(C)n2nc([N+](=O)[O-])c(Br)c2C)cc1 (configuration not stated)	-19%	-15%
Cc1c(N)cc2c(c1N)C(C)(C)CC2(C)C	i	4%
Cc1csc(=O)n1CCC(=O)N(C)Cc1c(F)cccc1Cl	-14%	-15%
CCOC(=O)c1nn(-c2ccccc2C)c(=O)cc1OCC(=O)N1CCN(c2ccccc2)CC1	-16%	-19%
COc1ccc(N(CC(=O)O)S(=O)(=O)c2ccccc2[N+](=O)[O-])c(OC)c1	0%	-5%
CC1(C)CC(=O)C(C(C2=C(O)CC(C)(C)CC2=O)c2ccc(Cl)c([N+](=O)[O-])c2)C(=O)C1 (configuration not stated)	i	-7%
O=C(NC1CCCc2c1cnn2-c1ccc(F)cc1F)c1ccccn1 (configuration not stated)	-29%	-10%
COc1cc(/C=C2\CCC/C(=C\c3ccc(O)c(OC)c3)C2=O)ccc1O	6.3µM*	?
CN1CCC[C@H]1CCNC(=O)c1c(-c2ccsc2)sc2ccccc12	-8%	-17%
O=C(/C=C/c1cccc(F)c1)OCC(=O)N1CCCc2ccccc21	-12%	-6%
COc1ccc(S(=O)(=O)NCCSc2ccc(Cl)cc2)cc1OC	-20%	-15%
COc1ccccc1NS(=O)(=O)c1cccc2nsnc12	i	-4%
Cc1ccc(N2/C(=N/c3nc(C)cc(C)n3)NC(=O)CC2C(=O)O)cc1 (configuration not stated)	i	5%
Cc1cc(C)c(NC(=O)c2oc3ccccc3c2COc2ccccc2)c(C)c1	-8%	-6%
C/C(=N\NC(=S)NCc1ccccc1)c1ccc(Cl)cc1	-24%	-14%
Cc1ccc(OCC(=O)N(C)CC(=O)Nc2cccc(F)c2)cc1	-4%	-16%
CCCN1C(=O)C2(C(C(=O)c3ccc(C)o3)=C(O)C(=O)N2CCCOC)c2ccccc21 (configuration not stated)	-1%	-12%
CCOC(=O)c1cocc1C(=O)O	-12%	-5%
CNC(=O)CN(c1cccc2ccccc12)S(C)(=O)=O	-26%	-18%
S=c1ccss1	-4%	8%
CCN(CC)S(=O)(=O)c1ccc(N2CCCC2)c(NS(=O)(=O)c2ccc([N+](=O)[O-])cc2)c1	-11%	-15%

The closing 4 entries of the part above open the next one.
SMILES	VACV mCherry inh	Vaccinia Venus
CCOC(=O)c1cocc1C(=O)O	-12%	-5%
CNC(=O)CN(c1cccc2ccccc12)S(C)(=O)=O	-26%	-18%
S=c1ccss1	-4%	8%
CCN(CC)S(=O)(=O)c1ccc(N2CCCC2)c(NS(=O)(=O)c2ccc([N+](=O)[O-])cc2)c1	-11%	-15%
COc1cc([C@@H]2[C@H]3CNCC=C3C(C#N)=C(N)C2(C#N)C#N)ccc1OC(C)C	/	7%
Oc1cc(CNCc2ccccc2)c(O)cc1CNCc1ccccc1	-21%	36%[activator]
CC(C)N1CCN(C2CSCCSC2)CC1CCO (configuration not stated)	i	-3%
COc1cccc(NC(=O)Cc2csc(NC(=O)Nc3ccccc3OC)n2)c1	?	?
Cc1cccn2c(=O)nc(SCC(=O)N3CCN(c4ccccc4)CC3)nc12	-14%	-12%
COc1ccc(-n2nc(C(=O)NCC(=O)NC3CCCCC3)c3ccccc3c2=O)cc1	4%	0%
CCOc1ccc2nnc(-c3ccc(Br)cc3)n2n1	-9%	-18%
O=C(NCc1ccccc1Cl)c1ccc(Cn2c(=O)c3cccn3c3cccnc32)cc1	-12%	-13%
C[C@]12C[C@H](O)[C@H]3[C@@H](CCC4=CC(=O)CC[C@@]43C)[C@@H]1CC[C@@H]2C(=O)CO	-12%	-6%
COCCCNc1ncnc2c1nnn2C	i	-5%
O=C(NNC(=O)C1CC1c1ccccc1)c1ccccc1F (configuration not stated)	-13%	-6%
CC1CCc2c(sc(NS(=O)(=O)c3ccccc3)c2C(=O)OC(C)C)C1 (configuration not stated)	-14%	0%
O=C(N/N=C/c1ccccc1F)c1ccccc1OCc1ccccc1	i	2%
CN(C)CCCN1CC(C(=O)O)CC1=O (configuration not stated)	i	-4%
Cc1ccc(C2=NN(C(=O)c3cccs3)C(c3ccccc3O)C2)cc1 (configuration not stated)	-1%	11%

Some of these compounds in order of number of heavy atoms, smallest number first:
SMILES	VACV mCherry inh	Vaccinia Venus
O=C(NNC(=O)C1CC1c1ccccc1)c1ccccc1F (configuration not stated)	-13%	-6%
C[C@]12C[C@H](O)[C@H]3[C@@H](CCC4=CC(=O)CC[C@@]43C)[C@@H]1CC[C@@H]2C(=O)CO	-12%	-6%
Oc1cc(CNCc2ccccc2)c(O)cc1CNCc1ccccc1	-21%	36%[activator]

Continuation.
SMILES	VACV mCherry inh	Vaccinia Venus
CCc1ccccc1-n1c(SCC(=O)c2c(N)n(C3CC3)c(=O)[nH]c2=O)nnc1N1CCOCC1	i	1%
O=C(Cn1ccc(C(F)(F)F)n1)Nc1cccc(S(=O)(=O)N2CCCCC2)c1	-12%	-17%
COc1cccc(COC(=O)c2ccc(-c3nnn(Cc4cccc(OC)c4)n3)cc2)c1	-12%	-11%
Cc1ccccc1NC(=O)c1ccccc1-c1ccccc1	-2%	6%
OCCC1CN(Cc2cccc3nonc23)CCN1Cc1ccsc1 (configuration not stated)	-27%	-10%
CC(=O)Nc1ccc(NS(=O)(=O)c2cc([N+](=O)[O-])ccc2C)cc1	-13%	-8%
O=C1CC/C=C\C[C@@H](CC(=O)N(CCO)Cc2ccccc2)C(=O)N2CCC[C@H]2CO1	-14%	-10%
COCCCNC(=O)c1ccc2c(c1)N=C(C)c1c(C)ccc(C)c1S2	-30%	-29%
CSc1nnc(CNC(=O)c2ccccc2)n1-c1ccc(F)cc1	i	-7%
COc1ccc(C(=O)Nc2cccc(NC(C)=O)c2)cc1	14%	-6%
c1ccc(-c2nc(SCC3CCCCO3)n[nH]2)cc1 (configuration not stated)	-12%	-17%
COc1cccc(C2CC(c3cccc(OC)c3)n3nc(N)nc3N2)c1 (configuration not stated)	-13%	-13%
CCc1ccccc1Nc1nc(N)nc(CSCC(=O)Nc2ccc(C)c(C)c2)n1	-9%	-22%
O=C(Nc1ccnn1C1CCN(C(=O)c2cccnc2)CC1)c1cccc(F)c1	i	-12%
CN(Cc1ccccc1)C(=O)CSc1nnc(-c2cccc(Cl)c2)o1	?	-22%
CCC(=O)Nc1cc(=O)[nH]c2nc(-c3ccc(Cl)cc3)nn12	-15%	4%
COCCCNc1nc2ccccc2nc1NS(=O)(=O)c1ccc(OC)cc1	-12%	-5%
COc1ccc(C(=O)NCCn2cc(SCC(=O)Nc3cc(C)on3)c3ccccc32)cc1OC	-3%	-3%
COc1ccccc1NC(=O)Cn1cnc2c(oc3nc4c(cc32)CCCC4)c1=O	-9%[7.34 µM]	6%[7.34 µM]
COc1cc2cc(CCCOC(=O)CCC(=O)O)oc(=O)c2cc1OC	-8%	-10%
COCCNC(=O)[C@H]1N2C(=O)c3c(ccc(OC)c3OC)C2SC1(C)C (some centres not stated)	i	-13%
COc1ccc(N2C(=O)CC(Sc3nccc(C)n3)C2=O)c(OC)c1 (configuration not stated)	-5%	-13%
Cc1ccc(-c2sc(-c3ccccc3)nc2CC(=O)Nc2ccccc2F)cc1	-13%	-6%
COc1ccc(C(=O)NCCCc2ccccc2)cc1	3%[7.34 µM]	-7%[7.34 µM]
O=C1CCC[C@@H]2[C@H](Cc3ccccc3)[C@@H](O)C[C@@H]3CCN1[C@@H]32	-17%	-8%&-17%
Cc1ccc(Nc2nnc(SCC(O)=C(C#N)c3nc4ccccc4[nH]3)s2)c(C)c1	0%	10%
O=c1[nH]c2ccc([N+](=O)[O-])cc2[nH]1	i	-10%
O=C(c1ccc(CSCc2ccccc2F)o1)N1CCN(c2ccc(N3CCOCC3)nn2)CC1	-17%	-27%
O=S(=O)(NCC(c1ccco1)S(=O)(=O)c1cccs1)c1ccc(Cl)cc1 (configuration not stated)	-12%[7.34 µM]	-8%[7.34 µM]
COc1ccc(Br)cc1C(=O)Nc1ccc(C(=O)NCC(C)C)cc1	8%	-23%

Among those listed so far, three have bromine:
SMILES	VACV mCherry inh	Vaccinia Venus
CC(=O)Nc1ccc(NC(=O)C(C)n2nc([N+](=O)[O-])c(Br)c2C)cc1 (configuration not stated)	-19%	-15%
CCOc1ccc2nnc(-c3ccc(Br)cc3)n2n1	-9%	-18%
COc1ccc(Br)cc1C(=O)Nc1ccc(C(=O)NCC(C)C)cc1	8%	-23%

Exported bar-delimited: 2 of the compounds above.
Structure | VACV mCherry inh | Vaccinia Venus
CCC(=O)Nc1cc(=O)[nH]c2nc(-c3ccc(Cl)cc3)nn12 | -15% | 4%
COc1ccc(C(=O)NCCn2cc(SCC(=O)Nc3cc(C)on3)c3ccccc32)cc1OC | -3% | -3%

(more compounds)
SMILES	VACV mCherry inh	Vaccinia Venus
COc1cccc(NC(=O)CSC2=Nc3ccccc3N=C(c3ccc(F)cc3)C2)c1	-11%	-14%
COC(=O)C[C@@H]1C=C[C@H](NC(=O)c2cnccn2)[C@@H](CO)O1	2%	3%
COc1ccc(NC(=O)CSC2=Nc3ccccc3C3=NC(CCC(=O)NCCc4ccccc4)C(=O)N23)cc1 (configuration not stated)	?	-30%
CCCOc1ccc(/C=C/C(=O)Nc2ccc([N+](=O)[O-])cc2)cc1	-18%	-10%
Cc1csc2nc(CNC(=O)c3ccco3)cn12	-15%	-5%
COc1ccc(C)cc1NC(=O)c1ccc(S(=O)(=O)N2CCCCC2)cc1	?	-1%
CC(=O)Nc1sc(C)c(C)c1C(=O)OC(C)C	-17%	-11%
CCOc1ccc(NC(=O)Cc2csc(COc3cccc(C)c3)n2)cc1	-11%	-1%
O=C(Cn1ncc2c(=O)oc3ccccc3c21)N(Cc1ccco1)C1CCCCC1	i	17%
CN(N=C(c1ccccc1)c1ccccc1)c1ccccc1	-16%	-17%
Cc1nn(C)cc1C(C(=O)NC1CCCCC1)N(Cc1ccc(F)cc1)C(=O)c1cnccn1 (configuration not stated)	-12%	-6%
Cc1ccc(S(=O)(=O)c2nc(-c3cccs3)oc2SC(C)C)cc1	-1%	-10%
O=C(c1ccc2oc(Cc3ccc(Cl)cc3)nc2c1)N1CCCCC1CCO (configuration not stated)	-23%	-10%

Bioassay records deposited in PubChem BioAssay by National Center for Advancing Translational Sciences (NCATS).
